Screens: PubChem BioAssay, ICCB-Longwood Screening Facility, Harvard Medical School
HCMV UL50-53 inh: cytomegalovirus nuclear egress complex inhibition | HTRF UL50-UL53 interaction, normalized percent inhibition | inhibition, % (test concentration not listed) | 0.15% of 190,000 active | AID 1918969;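 active means both replicates at 50% or more, plus weaker picks with an unusually low signal ratio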;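 further: stock transfer was 100 nL into about 20 µL; 0% = negative control wells and 100% = wells with untagged competitor protein; inactives centre near -12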
GIV Gai3 FP: inhibitors of GIV GBA-motif binding to rat Galpha-i3. 0.42% of 210,000 active. P08753. Galpha-i3/FITC-GIV peptide fluorescence polarization, 90 min; stronger effect = lower value; scaled: aluminum fluoride 0%, vehicle 100%. percent of control (FP), % (no concentration beside the values);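 active means replicate mean at 85% of control or lower, very high polarization wells dropped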;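 further: wells of about 15 µL received 100 nL stock; the first replicate is given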
Target sequence (P08753 whole entry, looked up): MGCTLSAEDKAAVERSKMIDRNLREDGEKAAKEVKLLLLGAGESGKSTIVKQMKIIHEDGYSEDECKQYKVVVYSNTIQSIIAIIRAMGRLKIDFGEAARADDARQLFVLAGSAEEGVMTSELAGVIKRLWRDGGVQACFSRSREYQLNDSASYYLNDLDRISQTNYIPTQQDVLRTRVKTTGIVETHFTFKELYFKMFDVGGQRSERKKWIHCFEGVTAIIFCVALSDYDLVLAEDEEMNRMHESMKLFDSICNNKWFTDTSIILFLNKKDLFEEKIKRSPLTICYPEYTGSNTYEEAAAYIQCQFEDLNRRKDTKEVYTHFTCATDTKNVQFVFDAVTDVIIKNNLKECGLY
Sa growth 42C: inhibitors of Staphylococcus aureus growth at 42 °C; 0.53% of 170,000 active; relative growth, % (test concentration not listed); S. aureus RN4220 growth, OD600, 20 h; stronger effect = lower value;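 active means growth at 42 °C up to 50% and 20 or more points under that at 30 °C, or under 10% at both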;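 further: 300 nL library stock went into each well; scaled to the means of positive and negative controls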
Sa growth 42C second temp: also measured in Sa growth 42C; calls as there; relative growth, %; measured here: growth at 30 °C;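 optical density after 20 h as mean of two plates; 100% = untreated growth and lower means inhibition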
Starred values were filed as active, the others as inactive; x = not tested or not shown.

SMILES	HCMV UL50-53 inh	GIV Gai3 FP	Sa growth 42C	Sa growth 42C second temp
O=c1[nH]c2ccccc2nc1-c1cc(-c2ccccc2)c(-c2ccccc2)s1	-16.3	101.1	x	x
CCn1cc(S(=O)(=O)c2ccc(C)cc2)c(=O)c2cc(F)c(N3CCCCCC3)cc21	x	107.4	118.8	87.7
O=C(Cn1cc(S(=O)(=O)Cc2ccc(F)cc2)c2ccccc21)NCc1ccccc1Cl	x	108.7	124.8	117.5
CCOC(=O)c1c(C)c2c(=O)[nH]cnc2n1-c1ccccc1	1.4	105.3	112.2	91.0
COc1ccc(C2=NN(C(C)=O)C(c3ccc(OC)c(OC)c3)C2)cc1OC (stereo not given)	-16.0	97.9	x	x
Cc1cc(C)c2c(n1)SCC(=O)N2CC(=O)Nc1cccc(Cl)c1	-15.7	104.3	91.1	78.3
FC(F)(F)c1ccc(Cl)nc1	4.0	x	105.8	94.5
COc1cccc2c(=O)c(NC(=O)NCCCN3CCN(C)CC3)c[nH]c12	-21.9	97.7	89.5	88.3
CC1(C)C(=O)N(CC(=O)N2CCOCC2)c2ccc(S(=O)(=O)N3CCCC3)cc21	-13.9	105.2	x	x
CCOC(=O)C1CCN(C(=O)c2ccc3snnc3c2)CC1	3.5	105.7	99.3	98.6
COc1ccc(Cl)cc1NC(=O)CSc1nc(=O)[nH]c2c1CCCC2	x	93.9	109.2	92.0
CCOC(=O)c1cc(-c2ccccc2)n(CCCC(=O)N2CCCCC2)c1C	x	101.9	99.5	82.1
Cc1ccccc1NC(=O)C(C)Sc1nc2ccccc2c(=O)n1C (stereo not given)	-17.1	100.5	79.4	97.2
O=C(NCc1ccco1)c1cccc(S(=O)(=O)Nc2ccc(Br)cc2)c1	-17.8	x	106.2	79.9
CSc1ncccc1C(=O)OCC(=O)NCc1ccccc1	-5.5	x	81.0	83.9

5 structures already listed, ordered by formula weight, rising.
SMILES	HCMV UL50-53 inh	GIV Gai3 FP	Sa growth 42C	Sa growth 42C second temp
CSc1ncccc1C(=O)OCC(=O)NCc1ccccc1	-5.5	x	81.0	83.9
CCOC(=O)C1CCN(C(=O)c2ccc3snnc3c2)CC1	3.5	105.7	99.3	98.6
COc1cccc2c(=O)c(NC(=O)NCCCN3CCN(C)CC3)c[nH]c12	-21.9	97.7	89.5	88.3
COc1ccc(C2=NN(C(C)=O)C(c3ccc(OC)c(OC)c3)C2)cc1OC (stereo not given)	-16.0	97.9	x	x
O=C(NCc1ccco1)c1cccc(S(=O)(=O)Nc2ccc(Br)cc2)c1	-17.8	x	106.2	79.9

Retrieved one by one from the list above (4):
SMILES	HCMV UL50-53 inh	GIV Gai3 FP	Sa growth 42C	Sa growth 42C second temp
CCOC(=O)c1c(C)c2c(=O)[nH]cnc2n1-c1ccccc1	1.4	105.3	112.2	91.0
CSc1ncccc1C(=O)OCC(=O)NCc1ccccc1	-5.5	x	81.0	83.9
O=C(Cn1cc(S(=O)(=O)Cc2ccc(F)cc2)c2ccccc21)NCc1ccccc1Cl	x	108.7	124.8	117.5
O=C(NCc1ccco1)c1cccc(S(=O)(=O)Nc2ccc(Br)cc2)c1	-17.8	x	106.2	79.9

Back to the main list, repeating the 2 entries before the break.
SMILES	HCMV UL50-53 inh	GIV Gai3 FP	Sa growth 42C	Sa growth 42C second temp
O=C(NCc1ccco1)c1cccc(S(=O)(=O)Nc2ccc(Br)cc2)c1	-17.8	x	106.2	79.9
CSc1ncccc1C(=O)OCC(=O)NCc1ccccc1	-5.5	x	81.0	83.9
CN(C)Cc1c(O)ccc2c(=O)c(-c3ccc(F)cc3)c(C(F)(F)F)oc12	2.8	x	104.7	94.0
Cc1ccc(N(C)S(=O)(=O)c2cc(Br)cnc2N)cc1	x	95.6	79.0	70.8
CN(C1CCCCC1)S(=O)(=O)c1cc2c(cc1Cl)NC(=O)CO2	x	99.2	93.2	82.0
CC1CCN(S(=O)(=O)c2ccc(S(=O)(=O)N3CCCN(Cc4ccccc4)C3)cc2)CC1	-1.6	109.8	64.2	80.4
CCCCNC(=O)c1ccc(-c2nc(CN3CCc4ccccc43)c(C)o2)cc1	x	108.8	96.1	95.1
CCOc1ccc(OCC)c(NS(=O)(=O)c2ccc3c(c2)CCCN3C(C)=O)c1	x	100.4	90.1	85.8
OCc1c(F)c(F)c(F)c(F)c1F	x	99.2	95.4	82.0
COc1ccc(C(=O)Nc2sc(C)c(C)c2CN2CCN(CCO)CC2)cc1	-20.1	x	62.8	82.5
CCCCn1c(NCc2cc(Br)ccc2O)nc2ccccc21	-27.9	101.0	105.8	87.5
Cc1ccc(N(C2CCS(=O)(=O)C2)S(C)(=O)=O)cc1 (stereo not given)	11.3	x	98.2	94.5
COc1cc(OC)c(/C=C2\C(=O)NC(=S)N(c3ccc(Cl)cc3)C2=O)cc1Br	-15.7	98.4	x	x
Cc1cc(-c2ccc(S(=O)(=O)N3CCc4ccccc43)s2)on1	-48.9	100.3	97.8	83.7
Cn1cc(-c2nc(-c3cccc(Br)c3)no2)c(=O)c2cc(F)c(N3CCOCC3)cc21	-21.9	102.5	x	x
O=C(Nc1cc(Cl)ccc1O)c1nc2ncccn2n1	-14.0	99.3	106.6	70.9
Cc1cccc(C(=O)N(Cc2nc(-c3ccc(Cl)cc3)no2)C(C)C)c1	x	104.9	107.1	103.4
O=C1CN(c2ccc(Cl)cc2)C(=O)CN1/N=C/c1ccco1	-110.5	104.4	87.2	89.3
O=C(NC1CCc2ccccc21)c1ccc2c(c1)[nH]c(=O)n2C1CCCCC1 (stereo not given)	2.7	101.5	105.8	68.6
Cc1ccc(C)c(N2CCN(C(=O)CCN3C(=O)COc4ccccc43)CC2)c1	-12.3	104.9	108.2	76.8
O=C(CSC1=NS(=O)(=O)c2cc(Cl)ccc2N1)NCc1ccc2c(c1)OCO2	-16.1	106.5	90.4	85.2
N/C(=C\C(=O)C(F)(F)F)c1ccc(Cl)cc1	-15.5	105.5	101.7	89.1
Cc1c(Cl)cccc1NS(=O)(=O)c1ccc2[nH]cc(C(=O)NC3CCCC3)c(=O)c2c1	-19.3	99.6	105.8	63.4
CN1CCc2nc3sc(C(=O)Nc4c(F)cccc4F)c(N)c3cc2C1	-68.3	125.5	98.2	90.8
NNC(=O)c1cc(OCC(F)(F)F)nc(OCC(F)(F)F)c1	-22.5	109.0	110.8	89.5
O=C(O)C(Cc1ccccc1)N1C(=O)CSC1=S (stereo not given)	-4.1	94.9	110.8	79.5
O=C(NCCc1nc(-c2ccc(F)cc2)n[nH]1)c1cccc(F)c1	-3.4	100.7	x	x
CNC(=O)/C(=C\c1ccc2c(c1)OCO2)NC(=O)c1ccco1	x	108.5	98.3	82.1
COc1cccc(Nc2sc(C(=O)c3ccc(F)cc3)c(N)c2C(=O)NCc2ccc(C)cc2)c1	x	104.7	106.5	81.9
CCOC(=O)C1CCN(CN2C(=O)CCC2=O)CC1	-31.9	103.6	108.0	93.0
CCNC(=O)NNc1c(Cl)cccc1Cl	-22.9	106.6	100.5	92.8
O=C(c1ccc(-n2cnnn2)cc1)N(C1CCCCC1)C1CCCCC1	-19.6	101.6	114.4	92.0
CS(=O)(=O)Nc1ccccc1C(=O)N1CCOCC1	-3.4	99.8	100.6	98.3
CCCc1nc2ccccc2c(C(=O)O)c1CC	-22.4	x	118.5	83.4
CC1CCN(S(=O)(=O)c2ccc(-c3nc(C#N)c(N(C)C)o3)cc2)CC1	-13.4	101.6	x	x
NC(=O)c1ccccc1NS(=O)(=O)Cc1ccccc1	-5.5	104.3	81.4	86.0
COC(=O)c1ccc(N2CCCC2)c(NS(=O)(=O)c2ccc(C)cc2)c1	x	97.2	109.5	86.5
Cc1cccc(NC(=O)CN2c3ccccc3S(=O)(=O)c3ccccc32)c1C	x	98.8	99.1	94.9
Cc1cc(Cl)ccc1-n1c(CCC(=O)O)ccc1-c1cccs1	-31.4	110.9	64.6	53.5
Cc1cccc(OC(C)C(=O)Nc2ccc(S(N)(=O)=O)cc2)c1 (stereo not given)	-13.3	103.2	102.1	108.3
O=C(O)CSc1nc2ccccc2c(=O)n1Cc1ccco1	15.6	107.8	102.8	107.4
N=c1c2c3c(sc2ncn1Nc1ccccc1)CCC3	-15.8	105.0	93.3	86.3
O=S(=O)(NC1CCCCC1Sc1nc2ccccc2o1)c1ccc(Cl)cc1 (stereo not given)	x	90.1	106.0	88.3
COc1ccc(C2NCC3(C)CN2CC(C)C3O)cc1OC (stereo not given)	-7.4	x	84.0	85.4
Cn1ccnc1SCC(=O)Nc1cccc2ccccc12	x	100.5	110.2	84.8
CSc1nc2nc3c(cn2n1)C(=O)CCC3	-23.3	100.3	88.6	82.7
COc1ccc(NC(=O)CN(C)C(=O)Cc2c[nH]c3ccccc23)cc1	-34.5	x	102.3	97.6
CN(c1nc(-c2ccc(Br)cc2)cs1)C1CCS(=O)(=O)C1 (stereo not given)	-10.7	98.6	93.7	90.8
COc1cccc(C(=O)NC(=O)Nc2ccc(-n3nc(C(F)(F)F)cc3C(F)(F)F)cc2)c1	2.8	103.1	90.1	96.1
COc1ccc(C2CC(c3ccc(C)cc3)=NN2S(=O)(=O)c2ccccc2)cc1 (stereo not given)	-16.3	105.5	x	x
COc1cc(C(=O)NCC2COc3ccccc3O2)cc(OC)c1C (stereo not given)	-4.7	x	96.4	97.6
CCN1C(=O)CCc2cc(NC(C)=O)ccc21	-10.5	106.5	x	x
O=C(COc1nc2ccccc2nc1N1CCOCC1)N1N=C(c2ccc(Cl)cc2)CC1c1ccco1 (stereo not given)	0.2	x	91.7	91.5
CCOC(=O)COc1ccccc1/C=C(/C#N)S(=O)(=O)c1cccs1	-9.6	101.2	105.5	86.2
COc1ccc(CNC(=O)CCC(=O)N2CC=C(c3c[nH]c4ccccc34)CC2)cc1	-7.0	98.4	x	x
c1csc(-c2nc(NC3=NCCCCC3)sc2-c2cccs2)c1	-13.7	x	107.9	96.0
CC1CCc2c(sc3nnn(CCCCOc4ccc(Cl)cc4)c(=O)c23)C1 (stereo not given)	-1.8	107.1	86.7	87.6
CCN(C(=O)c1sc2nc(C)nc(N3CCCCC3)c2c1C)c1ccccc1	-29.3	102.5	x	x
Nc1c(-c2nnc(SCc3cc(F)ccc3F)n2CC2CCCO2)sc2ncccc12 (stereo not given)	-13.6	100.9	x	x
N=c1n(-c2ccccc2)c(=N)n(-c2ccccc2)c(=N)n1-c1ccccc1	19.4	104.9	112.9	83.7
COc1ccc(-n2ncc(C(=O)NCCc3ccsc3)c2C2CCN(C(=O)OC(C)(C)C)CC2)cc1	x	109.0	119.8	93.5
O=c1cc(CN2CCN(Cc3ccccc3)CC2)occ1OCc1cccc(F)c1	-30.8	106.5	95.1	87.8
(further entries)
SMILES	HCMV UL50-53 inh	GIV Gai3 FP	Sa growth 42C	Sa growth 42C second temp
CC(C)N(Cc1ccccc1)C(=O)c1ccc(F)cc1F	-2.5	103.6	105.6	96.4
CN(C)C(CNc1ncnc2cc(Cl)ccc12)c1ccco1 (stereo not given)	-31.0	x	79.9	76.4
CCCCN(C(=O)c1nc2nccc(C)n2n1)c1ccccc1	-3.1	x	77.7	103.2
Cc1ccc(-c2nnc(N3CCOCC3)c3ccccc23)cc1S(=O)(=O)NC(C)(C)CO	-29.7	x	110.6	83.7
Cc1cc(OCC(=O)Nc2ncn[nH]2)ccc1Cl	-3.6	104.1	102.4	93.4
COc1ccccc1/C=C1/C(=O)N(C2CCCCC2)C(=S)N1C	-4.4	112.3	19.6	35.6
CCOC(=O)C1NCCc2ccccc21 (stereo not given)	0.8	x	87.3	96.3
COc1ccc(Cc2nnc(SCC(=O)N(c3ccccc3)C(C)C)n2N)cc1OC	-21.8	x	90.0	94.4
Cc1ccc(C(=O)N2CC(C)C(=O)Nc3ccccc32)cc1 (stereo not given)	-9.5	106.3	x	x
CCOC(=O)c1cc(C)nc(Sc2ccc(NC(C)=O)cc2)n1	-0.8	103.7	106.6	100.2
COc1cccc(C2C3=C(CC(c4ccc(Cl)cc4)CC3=O)Nc3ccccc3N2C(C)=O)c1 (stereo not given)	-21.5	104.0	x	x
COCn1nc(-c2ccc(Cl)cc2Cl)oc1=S	2.2	105.7	117.0	84.5
COc1cc(/C=C2\SC(NC(C)=O)=NC2=O)cc2sc(=O)oc12	-45.4	104.4	x	x
CC1=CC(c2ccccc2)NC(=S)N1 (stereo not given)	-34.8	96.2	92.7	82.9
Cc1ccnc(NCc2ccc(N(C)C)cc2)c1	x	94.4	106.3	91.8
Cc1cc(/C=C(\C#N)C(=O)N2CCc3ccccc3C2)c(C)n1C	-60.7	102.9	81.9	94.0
COc1ccc(NC(=O)C(NC(=O)Cc2cccs2)c2ccccc2)cc1 (stereo not given)	-3.1	93.8	109.5	94.2
CCOc1ccc(Oc2ccc(C(F)(F)F)cc2N)cc1	-2.8	x	95.3	95.0
COc1ccc(Cn2c(O)c(C=Nc3cc(C)on3)c3ccccc3c2=O)cc1	-25.3	x	102.2	97.6
CCOc1ccc(NC(=O)CSc2nc(-c3cccs3)cc(C(F)(F)F)c2C#N)cc1	-38.2	105.5	89.8	87.9
O=C1CC(C(=O)N2CCCC2)CN1CCc1ccc(F)cc1 (stereo not given)	18.2	101.9	114.7	104.7
CSc1ccccc1NC(=O)c1nn2c(c1Br)NC(c1cccs1)CC2C(F)(F)F (stereo not given)	-18.8	89.6	x	x
O=C(Oc1nsnc1N1CCOCC1)N1CCCCC1	-4.1	100.9	90.8	82.8
CCCC1/C(=N\O)CC(c2ccco2)NC1c1ccco1 (stereo not given)	-10.9	97.6	122.4	103.4
